High-throughput results from PubChem BioAssay.
Prx2 Sm inh – inhibitors of Schistosoma mansoni peroxiredoxin 2; Potency, µM; S. mansoni Prx2 activity coupled to TGR/GSH (TGR is thioredoxin glutathione reductase), NADPH fluorescence loss, qHTS; some inactives read as strong as hits; AID 448; hit rate 0.07% among 65,000; active means full or partial inhibition curve with a strong effect at the top dose; inconclusive means weaker partial or single-point curve; inactive means no accepted curve; further: series up to 57 µM; many of its hits are not listed in these tables
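Prx2 activity was followed as the loss of NADPH fluorescence (ex 365/em 450 nm), read every 30 sec for 8 min after H2O2 start. The enzyme mix (50 nM Prx2, 25 nM TGR, GSH, NADPH; pH 7.4 phosphate buffer) was incubated with compound for 15 min at room temperature first.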
LT uptake inh – anthrax lethal toxin internalization inhibition | Cells, anthrax lethal toxin internalization, FRET ratio (460/530) | AID 912 | Potency, µM (highest dose often 40 µM), inactives show top-dose activity change, negative = inhibition, usual class: inhibitors | hit rate 0.67% among 70,000; active = well fitted falling ratio curve with the 530 nm signal flat; inconclusive = other ratio curves, or a change in one channel alone; inactive = flat curves in the ratio and both channels; the % refers to the ratio; further: on the % scale 0 is the no-effect control and ±100 the full control effect; nearly all actives have a fitted effect of over 50% in size; tested in ME-180 cells; beta-lactamase reporter
Numbers without * were called inactive; ? = inconclusive; · = no result given; & = joins results of further samples; [ ] = dose if it differs, or a comment. Potency means the concentration at half of the fitted maximal effect.

A first look:
SMILES	Prx2 Sm inh	LT uptake inh
C[N+](C)(C)CCCCCCCCCC[N+](C)(C)C	>57&>57	2.5%[3.58 µM]
COC(=O)c1ccccc1NC(=O)c1ccc2c(c1)OCCO2	>57	1.9%
CC1(C)CC(=O)C(C(C2=C(O)CC(C)(C)CC2=O)c2cccc(O)c2)C(=O)C1 (configuration not stated)	·	1.7%
CC(C)[C@@H](CC(=O)N[C@@H]1CCNC[C@H]1C(=O)N[C@H](CC(=O)N[C@@H](CCC(=O)O)CC(=O)O)Cc1c[nH]c2ccccc12)NC(=O)C[C@H](Cc1c[nH]c2ccccc12)NC(=O)[C@@H]1CNCC[C@H]1N	>57	0.1%
COc1ccccc1NC(=O)NCCCN1CCN(c2cccc(Cl)c2)CC1	>57	?

The whole of this part, repeating the preview:
SMILES	Prx2 Sm inh	LT uptake inh
C[N+](C)(C)CCCCCCCCCC[N+](C)(C)C	>57&>57	2.5%[3.58 µM]
COC(=O)c1ccccc1NC(=O)c1ccc2c(c1)OCCO2	>57	1.9%
CC1(C)CC(=O)C(C(C2=C(O)CC(C)(C)CC2=O)c2cccc(O)c2)C(=O)C1 (configuration not stated)	·	1.7%
CC(C)[C@@H](CC(=O)N[C@@H]1CCNC[C@H]1C(=O)N[C@H](CC(=O)N[C@@H](CCC(=O)O)CC(=O)O)Cc1c[nH]c2ccccc12)NC(=O)C[C@H](Cc1c[nH]c2ccccc12)NC(=O)[C@@H]1CNCC[C@H]1N	>57	0.1%
COc1ccccc1NC(=O)NCCCN1CCN(c2cccc(Cl)c2)CC1	>57	?
CCOC(=O)CCC(=O)Nc1ccc(S(=O)(=O)N2CCCC2)cc1	>57	5.1%
O=C1CCc2cc(S(=O)(=O)N3CCC(C(=O)NC4CCCCCCC4)CC3)ccc2N1	>57	-0.8%
Cc1ccc(C)n1-c1cccc(N)c1	>57	2.3%
CC(=O)CCc1c[nH]c2c(C(=O)O)cccc12	·	6.1%
CC[C@H]1C2=C3C(CC[C@H]4C(OCc5ccc(F)cc5C(F)(F)F)OC[C@](C)([C@@H]34)N(C(=O)OC(C)(C)C)C2)C2COC(=O)OCC21 (some centres not stated)	>57	?
O=C(O)[C@@H](O)[C@@H](O)[C@@H](O[C@H]1O[C@@H](CO)[C@@H](O)[C@@H](O)[C@@H]1O)[C@@H](O)CO	>57	0.0%[3.58 µM]
CCOc1ccc(-c2c(C#N)c(N)nc3c2c(=O)n(C)c(=O)n3C)cc1OC	·	10.7%
COc1ccccc1-c1cc(C(F)(F)F)nc(N2CCOCC2)n1	>57	-7.3%
O=C(CCCN=C1NS(=O)(=O)c2ccccc21)OCC(=O)N1CCc2ccccc21	>57	-0.5%
Cn1cc(Cl)c(C(=O)Nc2cccc(Cl)c2Cl)n1	>57	10.4%
COc1ccc(S(=O)(=O)N(C)CC(=O)NCc2cccnc2)cc1C	·	-4.2%
N#Cc1ccccc1-c1cncnc1NCc1cccnc1	>57	3.8%
Cc1ccc(Cn2c(NC(=O)c3ccco3)nc3ccccc32)cc1	>57	-7.4%
COc1ccc(C(=O)c2coc3ccc(O)c(CN(C)C)c23)cc1	>57	20.0%
C[C@@H](C(=O)O)c1ccc(C[C@@H]2CCCC2=O)cc1	>57	-7.5%
Cc1nc2cc(F)ccc2n1C1CCN(S(=O)(=O)c2ccccc2)CC1	>57	-8.0%
Cc1cccc(-n2nc3c(c2NC(=O)c2ccco2)CSC3)c1C	>57	?
CCn1cc(C(=O)Nc2ccc3c(c2)OCCO3)c2cc(OC)c(OC)cc2c1=O	>57	5.0%
CCC(=O)N1CN(S(=O)(=O)c2ccc(C)cc2)CC1C (configuration not stated)	>57	-7.6%
O=C(CCS(=O)(=O)c1cccc2nonc12)N1CC(=O)N(CCc2ccccc2)C(=O)C1	>57	8.9%
CCCOC(=O)c1[nH]c2c(c1C)C(=O)CC(c1cc(OC)c(OC)c(OC)c1)C2 (configuration not stated)	>57	-17.8%
Cc1ccc(CCNC(=O)C2CCCN2S(=O)(=O)c2ccc3c(c2)CCC(=O)N3)cc1 (configuration not stated)	>57	-5.1%
COc1cc(C(=O)OC2CCCCC2=O)cc(OC)c1C (configuration not stated)	>57	-6.5%
CCCNC(=O)OC[C@H]1O[C@@H](CCO/N=C2/C[C@@H](O)[C@@H](O)[C@@H]3[C@@H]4C(=O)N(CC)C(=O)[C@H]4CC[C@@H]23)C=C[C@@H]1Oc1ccc(OC)cc1	·	-5.4%[8 µM]
COc1ccc(OC)c(S(=O)(=O)N2CCC(C(=O)NCc3ccccc3)CC2)c1	>57	6.3%
CC1CCCCC1NC(=O)CCS(=O)(=O)c1cccc2nonc12 (configuration not stated)	>57	-2.6%
C1CCN(c2nc3nonc3nc2N2CCCC2)C1	>57	0.1%
CCCS(=O)(=O)N1CCN(C(=O)CCC2CCCC2)CC1	>57	-6.7%
Cc1cc(C)c2c(=O)[nH]n(C(C)C)c2n1	>57	-16.7%
COc1ccc(OC)c(S(=O)(=O)Nc2ccccc2SC)c1	>57	8.2%
O=S(=O)(NCC(O)COCc1ccco1)c1cccs1 (configuration not stated)	>57	11.0%
Cc1cc(=O)[nH]c(SCC(=O)N2CCN(C(c3ccccc3)c3ccccc3)CC2)n1	>57	27.3%
CC(C)(C)c1ccc(Cn2nnc3c(=O)[nH]c(C4CCN(C(=O)Cc5cccs5)CC4)nc32)cc1	>57	?
CCn1c(SCc2nc3ccccc3[nH]2)nnc1-c1cnccn1	>57	-18.3%
CO[C@H]1COC(=O)[C@@H](OCc2ccccc2)/C=C\[C@H](C)[C@@H](OC)COC(=O)[C@H](OCc2ccccc2)/C=C\[C@@H]1C	·	-4.4%[8 µM]
O=C(c1ccc2c(c1)OCCO2)C1CCN(S(=O)(=O)c2ccccc2F)CC1	>57	?
C=C(C)COc1ccc(-c2nc(N)ncc2Oc2ccc(OC)cc2)c(O)c1	>57	?
Cc1cc(S(=O)(=O)N2CC(=O)N(CCc3ccccc3)C(=O)C2)ccc1F	>57	1.0%
COc1ccc(OC)c(C(=O)c2nc3c(n2O)CCCCC3)c1	>57	6.0%
COc1ccc(CC[n+]2cc(/N=C(\C)[O-])on2)cc1OC	>57	?

Reprinted at random: 2 compounds from above, in no set order.
SMILES	Prx2 Sm inh	LT uptake inh
Cc1cc(=O)[nH]c(SCC(=O)N2CCN(C(c3ccccc3)c3ccccc3)CC2)n1	>57	27.3%
COc1ccc(OC)c(S(=O)(=O)Nc2ccccc2SC)c1	>57	8.2%

The list continues:
SMILES	Prx2 Sm inh	LT uptake inh
O=C(NCCCN1CCCC1)Nc1cccc2ccccc12	>57	-10.8%
CCOc1ccc(-n2cnnn2)cc1S(=O)(=O)Nc1c(C)cccc1C	>57	?
Cc1c(C(=O)NCc2ccccn2)sc2nc(-c3ccccc3)cn12	>57	-17.0%
Cn1c(SCC(=O)Nc2ccc3c(c2)OCCO3)nnc1-c1ccccn1	>57	-1.4%
CC(=O)OC[C@@H]1O[C@H](C/C=N\O[C@@H](C)c2cn([C@H]3COC[C@H]3O)nn2)C=C[C@@H]1OC(C)=O	·	2.3%[8 µM]
O=c1c2c(n3nnnc3n1-c1ccccc1)-c1ccccc1CC21CCCC1	>57	-4.7%
Cc1ccc2c(c1)N(CC(=O)OC(CC(C)C)C(=O)NC1CCCC1)C(=O)CO2 (configuration not stated)	>57	-4.6%
Cc1cc(C)c(C#N)c(SCc2ccc(C#N)cc2)n1	>57	7.2%
CC(C)c1ccc(NC(=O)C(c2ccc3c(c2)OCO3)N2CCN(C(=O)c3ccco3)CC2)cc1 (configuration not stated)	>57	-2.8%
O=C(CCCCn1c(=O)[nH]c2ccccc2c1=O)N1CCN(c2cccc(C(F)(F)F)c2)CC1	>57	?
CCSC1=NC(=O)/C(=C2/C=Cc3ccccc3N2CC)S1	>57	-14.6%
Cn1c2ccccc2c2ncn(CCCN3CCOCC3)c(=O)c21	>57	?
Cc1nc2sc3c(c2c(=O)[nH]1)CCC3	·	11.8%
COc1ccccc1N1CCN(S(=O)(=O)c2ccc3c4c(cccc24)C(=O)N3)CC1	>57	-20.0%
Cn1c(C(=O)N2CCN(C3CCCCC3)CC2)cc2c(=O)n(C)c3ccccc3c21	>57	-5.8%
CC(C)CCSc1nnc(Cn2c(=O)sc3ccccc32)n1C	>57	-12.6%
CCOC(=O)CNC(=O)CSc1nnc(-c2cccc(OC)c2)n1CC	>57	·
C=CCN1C(c2ccc(OCC)cc2)=CS/C1=C(\C#N)c1nnc2n1CCCCC2	>57	-27.7%
c1ccc(CSc2nnnn2-c2ccc3c(c2)OCCO3)nc1	>57	11.9%
CC(O)c1cc2c(cc1NC(=O)c1cnn3c1NC(c1ccco1)CC3C(F)(F)F)OCO2 (configuration not stated)	>57	-6.2%
O=C(Cn1ccc2ccccc2c1=O)N1CCN(c2cccc(Cl)c2)CC1	>57	-1.1%
CC1(C)OC(=O)C(=CNc2ccc(F)cc2)C(=O)O1	>57	3.2%
CC(NC(=O)C1C(=O)N(CCO)C2(C)CC1c1ccccc1O2)c1ccccc1 (configuration not stated)	>57	5.7%
NCCC[C@@H](CC(=O)N[C@@H]1CCCC[C@H]1C(=O)N[C@H](CC(=O)N[C@@H](CCC(=O)O)CC(=O)O)Cc1c[nH]c2ccccc12)NC(=O)C[C@H](Cc1ccccc1)NC(=O)[C@@H]1CCCC[C@H]1N	>57	10.2%
COc1ccc(S(=O)(=O)Nc2ccccn2)cc1OC	>57	11.2%
CC(=O)Nc1ccc(S(=O)(=O)N2CCC(NC(=O)c3ccco3)CC2)cc1	>57	-17.1%
O=C(COc1ccc2ccc(=O)oc2c1)Nc1ccc2c(c1)OCCO2	>57	?
O=C(CNS(=O)(=O)c1cccs1)N1CCC2(CC1)OCCO2	>57	-0.6%
COc1ccc(C(=O)Nc2ccccc2C(=O)NCCN2CCOCC2)cc1	>57	6.2%
Cc1cc(C)n(CCc2nc(-c3cccs3)cs2)n1	>57	-6.6%
COC(=O)Cn1c(CN2CCc3ccccc3C2)nc2c1c(=O)n(C)c(=O)n2C	>57	24.1%
CCC1(C(=O)O)NC(c2cccc(OC)c2O)C2C(=O)N(c3ccccc3)C(=O)C21 (configuration not stated)	>57	3.8%
NC(N)=N/N=C(/c1ccccc1)c1ccc(O)cc1O	>57	-2.2%[8 µM]
COc1ccc(-c2nnc3ccc(SCC(=O)N4CCN(c5ccccc5)CC4)nn23)cc1OC	>57	7.7%
OC(COc1ccc(C2C=CCC2)cc1)CN1CCCCC1 (configuration not stated)	>57	?
CC[N+](CC)(CC)CCOc1ccc(/C=C\c2ccccc2)cc1	>57	-0.1%
O=C(CCN1CCN(c2ccc(F)cc2)CC1)Nc1ccccc1F	>57	·
O=C(NCc1ccccn1)c1ccccc1Cl	>57	-17.3%
O=C1CC(N2CCN(c3ccc(F)cc3)CC2)C(=O)N1Cc1ccc(N2CCCC2=O)cc1 (configuration not stated)	>57	4.1%
Nc1c(C(=O)OCC2CCCO2)c2nc3ccccc3nc2n1-c1ccc2c(c1)OCCO2 (configuration not stated)	>57	2.8%
O=C(COc1ccccc1F)c1ccc(O)cc1O	·	-26.1%
CCn1c(=N)c(C(=O)NCc2cccnc2)cc2c(=O)n3cccc(C)c3nc21	>57	6.5%
CN1CCN(c2ncc3nc(-c4cccs4)c(=O)n(C[C@H]4CCCO4)c3n2)CC1	>57	?
CN(CCc1ccccn1)c1ccc2c(c1)C(=O)c1ccccc1-2	>57	-11.3%[8 µM]
c1ccc(-n2c(-c3ccncc3)nnc2N2CCOCC2)cc1	>57	-3.0%
Cn1c(Cc2ccccc2)nnc1SCCC(=O)Nc1ccccc1	>57	10.1%
CCCn1c(-c2ccc(F)cc2)nc2c(NCCCN3CCCCC3C)nc(C)nc21 (configuration not stated)	·	-5.8%
CCOC(=O)N1CCN(C(=O)CS(=O)Cc2nc(-c3cccc(C)c3)oc2C)CC1 (configuration not stated)	>57	-1.3%
O=c1[nH]c2ccccc2n1CCCOc1ccccc1	>57	-7.1%
COc1cccc(CNCCOCCO)c1OC	>57	3.1%
Cc1ccc(S(=O)(=O)NCC(c2ccccc2)N2CCN(CCC#N)CC2)cc1 (configuration not stated)	>57	·
COC(=O)c1cc(-c2ccc3ccccc3c2)[nH]c(=O)c1C#N	>57	-5.4%[8 µM]
CNc1nnc(-c2cc3ccccc3oc2=O)s1	>57	6.5%
COc1ccc(-c2nnc(CSc3nc4ccccc4c(=O)n3CC(C)C)o2)cc1OC	>57	-5.4%
Cc1cc(N2CCN(c3cccc(C(F)(F)F)c3)CC2)n2nc(C)nc2n1	>57	6.9%
COc1ccccc1-c1cncnc1NCc1ccccc1	>57	8.0%
Cc1ccc2cccc(NC(=O)C(F)(F)F)c2n1	>57	4.3%
CC(C)c1ccccc1NC(=O)c1cnccn1	>57	-15.6%
O=S(=O)(Nc1nc2ccccc2nc1NCc1ccco1)c1ccc(Cl)cc1	>57	-9.7%
CCOC(=O)N1CCC2(O)CCCCC2C1c1ccc(F)cc1 (configuration not stated)	>57	-9.1%

The list goes on.
SMILES	Prx2 Sm inh	LT uptake inh
c1ccc2c(c1)CCC[C@H]2C1=NCCN1	>57	-1.9%
CCN(CC(=O)NC1CCS(=O)(=O)C1)C(=O)COc1ccccc1-c1ccccc1 (configuration not stated)	>57	-19.0%
c1coc(Cn2c(-c3ccco3)nc3ccccc32)c1	>57	1.5%
COc1ccc(C(=O)CSc2nnnn2Cc2ccccc2)cc1	>57	-9.1%
NC(N)=NCCSSCCN=C(N)N	>57	-15.9%
CCC(C)N(C)Cc1cccc(C2(O)CCN(S(=O)(=O)c3ccc(F)cc3)CC2)c1 (configuration not stated)	>57	·
Cc1cc(C)c(S(=O)(=O)n2nc(C)c(Br)c2C)c(C)c1	>57	4.4%

Only part of the results is shown; count on the stated rates, not on these rows.
